High-throughput results as filed in PubChem BioAssay.
PP5 primary = blocks human protein phosphatase 5 activity; P53041; actives 0.18% (n = 320,000); purified PP5c, OMFP substrate fluorescence; inhibition, % at 6.7 µM;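 active means inhibition above the campaign's mean inhibition across all tested compounds plus 3 SD, cut at about 9.5% in these data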;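 further: 0% = DMSO only and 100% = 100 µM cantharidin control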
Target sequence (P53041 whole entry, looked up): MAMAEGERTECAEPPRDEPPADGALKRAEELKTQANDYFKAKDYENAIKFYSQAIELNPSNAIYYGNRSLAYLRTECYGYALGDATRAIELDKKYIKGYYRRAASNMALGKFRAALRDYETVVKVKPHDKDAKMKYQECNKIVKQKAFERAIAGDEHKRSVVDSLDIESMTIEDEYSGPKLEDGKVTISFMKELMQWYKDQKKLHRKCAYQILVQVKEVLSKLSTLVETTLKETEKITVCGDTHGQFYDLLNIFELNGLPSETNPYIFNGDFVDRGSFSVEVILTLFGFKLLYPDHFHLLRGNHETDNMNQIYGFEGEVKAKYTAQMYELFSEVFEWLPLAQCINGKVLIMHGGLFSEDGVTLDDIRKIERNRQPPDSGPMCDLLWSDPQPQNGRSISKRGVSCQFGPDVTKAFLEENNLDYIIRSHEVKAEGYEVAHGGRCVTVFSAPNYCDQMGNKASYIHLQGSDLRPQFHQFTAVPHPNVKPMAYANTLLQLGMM
PP1 inh = PP1-alpha (human) inhibition in PP5 counter-screen. P62136. purified PP1alpha, OMFP fluorescence. inhibition, % at 6.7 µM. actives 0.9% (n = 320,000). AID 2235;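 active means inhibition above the mean inhibition of all tested compounds plus 3 SD, computed separately for each screening campaign, cut at about 15% in these data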
JMJD2C inh = blocks human GASC-1 demethylase activity; Q9H3R0; GST-JMJD2C(1-420) H3K9me3 demethylation, DELFIA europium; inhibition, % at 2.35 µM; actives 0.069% (n = 330,000); AID 2099;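 active means more than half of a compound's replicate wells show inhibition beyond 50%, single wells judged on their own value; inconclusive means some, but no more than half, of replicates pass 50% inhibition; inactive means no replicate passes 50% inhibition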;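 further: signal counts dimethyl H3K9 product captured on neutravidin plate; 0% = median of DMSO wells and 100% = 0.3 times that DMSO median; strong numbers were not always called active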
TPT1 inhibitor = C. albicans TPT1 enzyme inhibition | recombinant caTPT1, FP RNA substrate dephosphorylation | inhibition, % at 5 µM | actives 0.81% (n = 300,000) | AID 1962;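 active means inhibition above the mean of all tested compounds plus 3 SD, set per screening campaign, cut at about 24% in these data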;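 further: plate controls were DMSO alone for no effect and ferristatin control at 100 nM for full effect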
HCV core dimer = blocks dimerization of HCV core protein | actives 0.33% (n = 300,000) | TR-FRET GST/Flag-core106 dimerization, 1536-well | inhibition, % at 5 µM;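 active means inhibition above the mean of all tested compounds plus 3 SD, set per screening campaign, cut at about 45% in these data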
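Assay system: GST-tagged and Flag-tagged HCV core protein residues 1-106 / Times: compound-protein-antibody incubation 4 h at 22.5 °C / Signal: time-resolved FRET, ex 340 nm, em 617 and 671 nm / Evaluation: % inhibition based on acceptor/donor emission ratio / Benchmarks: wells lacking GST-core106 and wells with excess unlabelled core106 / Repeats: singlicate, one well per compound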
Starred values were filed as active, the others as inactive; ? = inconclusive; . = no result given; & = joins results of further samples. These rows are one share of the data; the hit share may differ from the screen's.

SMILES	PP5 primary	PP1 inh	JMJD2C inh	TPT1 inhibitor	HCV core dimer
CCN(CC)CC(=O)Nc1c(C)cccc1C	-1.7	-0.4	7.0&-9.7	-2.4	7.3
CN(C)c1ccc(O)c2c1CC1CC3[C@@H](N(C)C)C(=O)C(C(N)=O)=C(O)[C@]3(O)C(=O)C1=C2O (some centres not stated)	1.1	9.1	-38.4	-1.2	5.3
CC(C)NC[C@@H](O)COc1cccc2ccccc12	-1.8	-2.2	1.6	-4.5	11.6
COc1cc(NS(C)(=O)=O)ccc1Nc1c2ccccc2nc2ccccc12	1.5	0.7	.	1.4	-13.2
CCN1CCN(c2cc3c(cc2F)c(=O)c(C(=O)O)cn3C2CC2)CC1	-0.1	4.2	?	-2.0	8.3
CCCC(=O)Nc1ncnc2c1ncn2[C@@H]1O[C@@H]2COP(=O)(O)O[C@H]2[C@H]1OC(=O)CCC	0.1	-0.6	14.2	-1.6	-8.8
C[C@]12CCC(=O)C=C1CC[C@@H]1[C@@H]2[C@@H](O)C[C@@]2(C)[C@H]1CC[C@]2(O)C(=O)CO	1.0	-0.1	-4.1	0.7	12.1
Nc1ccc(O)c(-c2nc3ccccc3s2)c1	1.5	10.3	2.5	5.0	82.0*
O=C(O)CC(O)(CC(=O)O)C(=O)O	3.4	0.1	5.3	-4.6	2.5
CN(C)CCCN1c2ccccc2Sc2ccc(C(F)(F)F)cc21	2.0	-3.4	-17.3&1.5	-6.6	-19.1
CC(C)NC[C@H](O)COc1cccc2ccccc12	3.6	-2.9	-26.8	3.0	-0.5
Nc1cccc([N+](=O)[O-])c1	0.5	-1.4	3.0	-2.4	-4.6
Nc1nnc(-c2cccc(Cl)c2Cl)c(N)n1	0.3	-2.5	1.9	0.8	-0.1
Cc1noc(NS(=O)(=O)c2ccc(N)cc2)c1C	4.2	-10.3	9.4	2.4	-11.5
O=c1ccn([C@@H]2O[C@H](CO)[C@@H](O)[C@H]2O)c(=O)[nH]1	-10.8	5.2	-13.3	-1.4	-8.1
Cc1ccc(NC(=O)c2ccc(CN3CCN(C)CC3)cc2)cc1Nc1nccc(-c2cccnc2)n1	1.8	0.9	-8.4	0.9	2.9
C=C(CC)C(=O)c1ccc(OCC(=O)O)c(Cl)c1Cl	2.9	4.5	-1.5	-5.1	12.6
CC(=O)Oc1c(C)c(C)c2c(c1C)CC[C@@](C)(CCC[C@H](C)CCC[C@H](C)CCCC(C)C)O2	0.7	-4.3	.	-1.5	-1.8

Part of the list above, as comma-separated lines:
mol,PP5 primary,PP1 inh,JMJD2C inh,TPT1 inhibitor,HCV core dimer
Nc1ccc(O)c(-c2nc3ccccc3s2)c1,1.5,10.3,2.5,5.0,82.0*
O=C(O)CC(O)(CC(=O)O)C(=O)O,3.4,0.1,5.3,-4.6,2.5
CN(C)CCCN1c2ccccc2Sc2ccc(C(F)(F)F)cc21,2.0,-3.4,-17.3&1.5,-6.6,-19.1
CC(C)NC[C@H](O)COc1cccc2ccccc12,3.6,-2.9,-26.8,3.0,-0.5
Nc1cccc([N+](=O)[O-])c1,0.5,-1.4,3.0,-2.4,-4.6
Nc1nnc(-c2cccc(Cl)c2Cl)c(N)n1,0.3,-2.5,1.9,0.8,-0.1
Cc1noc(NS(=O)(=O)c2ccc(N)cc2)c1C,4.2,-10.3,9.4,2.4,-11.5
O=c1ccn([C@@H]2O[C@H](CO)[C@@H](O)[C@H]2O)c(=O)[nH]1,-10.8,5.2,-13.3,-1.4,-8.1
Cc1ccc(NC(=O)c2ccc(CN3CCN(C)CC3)cc2)cc1Nc1nccc(-c2cccnc2)n1,1.8,0.9,-8.4,0.9,2.9
C=C(CC)C(=O)c1ccc(OCC(=O)O)c(Cl)c1Cl,2.9,4.5,-1.5,-5.1,12.6
CC(=O)Oc1c(C)c(C)c2c(c1C)CC[C@@](C)(CCC[C@H](C)CCC[C@H](C)CCCC(C)C)O2,0.7,-4.3,.,-1.5,-1.8

Shown as a hit in HCV core dimer, of those listed so far:
structure | PP5 primary | JMJD2C inh | TPT1 inhibitor | HCV core dimer
Nc1ccc(O)c(-c2nc3ccccc3s2)c1 | 1.5 | 2.5 | 5.0 | 82.0*
